Screens: PubChem BioAssay, National Center for Advancing Translational Sciences (NCATS)
CtBP-E1A blk: inhibitors of CtBP/E1A interaction. AlphaScreen GST-E1A/His-CtBP binding, 1536-well; active compounds read low; control for the full effect not named in the record. activity change, % (test concentration not listed). 340,000 tested, 0.49% active. AID 651724; in the data active means activity change below about -65%; inconclusive means about -30% to -65%; inactive means above about -30%; further: on the % scale 0 is the no-effect control and ±100 the full control effect
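In 5 uL wells, 23 nL compound meets equimolar GST-E1A and His-CtBP (5X stock 125 nM each) for 2 h, 37 °C. Beads (5X, 50 ug/mL) then 1 h, 37 °C, dark.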
D2 ag: human D2 receptor agonism in beta-arrestin assay; DiscoveRx PathHunter D2 beta-arrestin, luminescence, 90 min; 100% = 57 uM dopamine signal; activation, % (test concentration not listed); 360,000 tested, 0.084% active; P14416; in the data active = activation above about 40%; inconclusive = about 15% to 40%; inactive = below about 15%; further: compound concentration not given in the record; the text of the record calls up to 30% inactive
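DiscoveRx PathHunter D2 beta-arrestin cells (2,100/well) attached overnight, then compound-stimulated 90 min at 37 C in HBSS/10 mM HEPES/0.1% Tween-20 buffer; beta-galactosidase complementation read by luminescence after 1 h at ambient temperature. Dopamine 57 uM final (EC100) as control.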
Six1-Eya2 inh: blocks human Six1 binding to Eya2. Q15475+O00167. AlphaScreen GST-Six1/His-Eya2 binding, biochemical; active compounds read low; control for the full effect not named in the record. activity change, % (no concentration beside the values). 360,000 tested, 0.56% active; in the data active = activity change below about -65%; inconclusive = about -30% to -65%; inactive = above about -30%; further: on the % scale 0 is the no-effect control and ±100 the full control effect
Target sequence (O00167 whole entry, looked up): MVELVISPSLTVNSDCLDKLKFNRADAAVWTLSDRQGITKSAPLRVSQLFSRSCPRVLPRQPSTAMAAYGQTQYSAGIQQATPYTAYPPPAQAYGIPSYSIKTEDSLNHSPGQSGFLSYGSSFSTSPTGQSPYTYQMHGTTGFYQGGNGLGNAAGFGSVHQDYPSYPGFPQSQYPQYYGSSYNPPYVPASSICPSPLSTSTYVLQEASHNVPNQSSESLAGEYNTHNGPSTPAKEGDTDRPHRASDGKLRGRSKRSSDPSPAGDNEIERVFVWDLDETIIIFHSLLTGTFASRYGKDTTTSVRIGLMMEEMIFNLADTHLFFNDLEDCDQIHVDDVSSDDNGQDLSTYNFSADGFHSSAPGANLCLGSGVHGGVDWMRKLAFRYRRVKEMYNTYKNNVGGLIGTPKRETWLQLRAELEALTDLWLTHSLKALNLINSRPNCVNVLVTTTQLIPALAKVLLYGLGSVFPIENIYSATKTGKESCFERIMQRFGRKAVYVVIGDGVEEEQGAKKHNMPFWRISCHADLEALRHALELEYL
Target sequence (Q15475 whole entry, looked up): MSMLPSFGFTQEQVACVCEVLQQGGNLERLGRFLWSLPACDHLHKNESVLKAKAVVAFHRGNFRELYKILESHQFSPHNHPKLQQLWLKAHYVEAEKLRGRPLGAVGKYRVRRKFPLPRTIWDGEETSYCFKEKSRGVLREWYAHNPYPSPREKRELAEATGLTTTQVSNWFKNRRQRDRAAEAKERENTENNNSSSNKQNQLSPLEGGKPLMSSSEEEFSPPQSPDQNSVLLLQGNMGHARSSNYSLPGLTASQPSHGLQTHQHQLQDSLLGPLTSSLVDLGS
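AlphaScreen with GST-Six1 and His-Eya2 (5X mix: 250 nM and 500 nM), glutathione donor and nickel acceptor beads; buffer 50 mM Tris pH 8.0, 300 mM NaCl, 1 mM TCEP; 1 h at 37 C in the dark.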
D2 PAM: potentiates the human D2 dopamine receptor allosterically. DiscoveRx D2 beta-arrestin cells, luminescence, 90 min; 100% = 57 uM dopamine signal. AID 624464. 360,000 tested, 0.23% active. P14416. potentiation, % (test concentration not listed); active = potentiation of 50% or more; inconclusive = 30% to 50%; inactive = 30% or less;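 further: compound concentration not given in the record; tested on top of an EC20 dose of dopamine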
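PathHunter beta-arrestin assay in DiscoveRx D2 cells. Compounds were added with an EC20 of dopamine (50 nM final) for 90 min at 37 deg C. Luminescence was read 1 h after detection reagent, with 57 uM dopamine as the EC100 control.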
gsp antagonist: gsp mutant antagonism; 340,000 tested, 0.4% active; Potency, µM (series often up to 76.9 µM), for inactives: at the highest dose activity change, negative = inhibition, actives largely listed as inhibitors; gsp-mutant cells, cAMP HTRF, 30 min; control for the full effect not named in the record; active = falling curve of any shape with a large fitted effect; inconclusive = falling curve, mostly with a smaller effect; inactive = flat or rising curve; cell line not stated here;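 further: intracellular cAMP measured with PDE inhibitor Ro 20-1724 present during compound exposure; potency means the concentration at half of the fitted maximal effect; on the % scale 0 is the no-effect control and ±100 the full control effect; nearly all actives have a fitted effect of over 65% in size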
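Cells in G418 medium, seeded 16-24 h, 37C; buffer exchange to DPBS + 1 mM CaCl2, 0.5 mM MgCl2, 0.05% BSA; cpds in DMSO + […] (300 uM stock), 30 min 37C; HTRF cAMP detection.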
gsp agonist: agonists of gsp mutant (McCune-Albright syndrome). gsp mutant cells, cAMP HTRF, 30 min; control for the full effect not named in the record. Potency, µM (doses to about 76.9 µM), for inactives: at the highest dose activation (cAMP increase), most hits filed as activators. 340,000 tested, 0.13% active. AID 624287; active = well fitted activation curve with a large enough effect; inconclusive = small, poorly fitted or top-dose-only effect, or another doubt; inactive = no such curve, though single readings can be large or run the other way; cell line not stated here;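 further: phosphodiesterase inhibitor Ro 20-1724 added with compounds to block cAMP breakdown; potency means the concentration at half of the fitted maximal effect; nearly all actives have a fitted effect of over 60% in size; about a fifth of the inactives were tested at one dose only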
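Cells stably selected in G418 were plated at 2000/well, grown 16-24 hr, then given compounds in DMSO with the PDE inhibitor […] (300 uM solution added) for 30 min at 37C; cAMP was read by HTRF.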
An asterisk follows results filed as active; ? = inconclusive; . = not tested or not shown; [ ] = dose if it differs, or a comment.

SMILES	CtBP-E1A blk	D2 ag	Six1-Eya2 inh	D2 PAM	gsp antagonist	gsp agonist
C=CCn1c(SCC(=O)NC23CC4CC(CC(C4)C2)C3)nc2cc(C(=O)O)ccc2c1=O	1	-1.1	2	3	-4%	0%[15.4 µM]
COc1ccc2sc(-c3ccc(S(C)(=O)=O)cc3)c(-c3ccc4c(c3)OCCO4)c2c1	-2	1.0	1	-6	?	.
Cc1cc2ccccc2cc1CN1CCCCC1	.	-2.0	-5	-59	4%	-10%
COc1ccc(C(C(=O)NCC2CCCO2)N(Cc2ccccc2)C(=O)CNC(=O)c2ccco2)cc1OC (stereo not given)	0	1.0	1	7	.	-1%[15.4 µM]
COc1ccc(NC(=O)C/C(C)=N/NC(=O)C(=O)NC(C)C)c(OC)c1	7	-1.2	8	-8	3%	23%
COc1ccc(Nc2nnc(C)c3ccccc23)cc1C(N)=O	-9	-4.2	-2	-2	3%	6%
COc1ccc(Cl)cc1C(=O)Nn1cnnc1	.	-4.6	-2	-14	3%	-14%
COc1ccc(N2C(=O)NC(NS(=O)(=O)c3ccc(Cl)cc3)(C(F)(F)F)C2=O)cc1 (stereo not given)	13	-0.3	11	0	8%	-4%[15.4 µM]
CCCN1C(=O)CN(C2CCCCCC2)C(=O)C1c1ccc(C)cc1 (stereo not given)	15	3.1	3	-8	-9%	-5%
CC(NC(=O)C(c1ccccc1)c1ccccc1)c1ccc(S(N)(=O)=O)cc1 (stereo not given)	3	4.6	-1	-1	3%	-21%
CCn1c(=O)c(=O)[nH]c2c(=O)oc3ccc(S(=O)(=O)Nc4ccccc4)cc3c21	-1	-0.8	1	2	-23%	-21%
Cc1ccc(OCC(=O)N(C)CCc2ccccn2)cc1	8	-0.2	6	0	12%	?
COC(=O)CC1SC(=O)NC1=Nc1ccc(O)cc1 (stereo not given)	5	1.2	7	12	9%	-18%
Cc1ccc(C2=Nc3ccc(Br)cc3C(c3ccncc3)=NN2)cc1	-11	-5.0	-27	-8	?	14%[15.4 µM]
Cc1ccc(-c2cnc(C(O)c3cc(C)cc(C)c3)[nH]2)cc1 (stereo not given)	-11	-3.8	-15	-8	.	.
COc1ccc(C(C(=O)NCc2ccccc2)N(Cc2ccco2)C(=O)c2cnccn2)cc1 (stereo not given)	7	5.0	7	1	-8%	-14%[15.4 µM]
O=C(CN1CCN(Cc2ccc(Cl)cc2)CC1)N1CCc2ccccc21	-3	.	-2	.	-20%	-15%[15.4 µM]
Cc1cc(C)c(OCCCON2C(=O)CCC2=O)c(Br)c1	10	-1.6	4	-1	3%	10%[15.4 µM]
Cc1c(C(=O)N/N=C/c2cccs2)nnn1-c1nonc1N	16	1.9	-8	3	2%	-5%[15.4 µM]
CC(=O)c1ccc(OCC(O)CN2CCN(CC(O)COc3ccc(C(C)=O)cc3)CC2)cc1 (stereo not given)	2	-1.0	-7	1	12%	-34%[inhibitor]
CC(=O)c1cccc(NC(=O)N2CC(C)OC(C)C2)c1 (stereo not given)	8	-7.2	16	-5	8%	?
CC(C)Cc1ccc(CN2CCCC(NC(=O)Cn3cnnn3)C2)cc1 (stereo not given)	-10	-1.3	19	-4	14%	-7%
CC1=CC(C)C(=O)N(CCN2CCOCC2)C(C)=C1 (stereo not given)	3	0.1	-5	-15	.	2%
COc1cccc(C(=O)NC(Cc2ccccc2)c2ccc3c(c2)OCCCO3)c1 (stereo not given)	4	1.6	-3	-5	-12%	9%
CC(=O)c1c(C)[nH]c(C(=O)OCC(=O)Nc2cc(Cl)ccc2[N+](=O)[O-])c1C	-12	3.5	-27	3	35µM*	?
Cn1c2c(c(=O)c3ccccc31)CCC(C)(C)O2	5	-5.0	5	1	17%	19%
CCCCOc1ccc(-c2csc(N)n2)cc1[N+](=O)[O-]	-27	-0.2	-24	-13	-6%	8%
Cc1cc(=O)oc2c3c(cc(OCC(=O)NCc4ccccn4)c12)OC(C)(C)CC3	-13	-5.4	-16	3	-2%	17%
CCc1cc(C(=O)N(CC(C)C)c2c(N)n(Cc3ccccc3)c(=O)[nH]c2=O)sc1C	-24	2.7	3	-4	0%	-9%[15.4 µM]
O=C1c2cccc3cccc(c23)C(=O)N1CCN1CCN(CC(O)COc2ccc3ccccc3c2)CC1 (stereo not given)	-15	-3.1	-8	-6	3%	-9%
O=C(CCn1cccc1)NCc1ccccc1	1	-3.9	-6	-13	10%	-14%
COc1ccc(OC(=O)N2C/C(=C/c3ccccc3)C(=O)/C(=C\c3ccccc3)C2)cc1	21	0.4	-2	-15	-2%	-9%
C=CCNc1nc(-c2sc(NC(C)=O)nc2C)cs1	-16	-1.7	-5	-12	-2%	7%
COc1cc(C2c3cc4c(cc3CC3COC(=O)N32)OCO4)cc(OC)c1OC (stereo not given)	6	3.6	0	-7	15%	-10%
COc1ccccc1CNC(=O)CN1C(=O)c2ccc([N+](=O)[O-])cc2C1=O	-2	?	9	12	5%	-12%
CCOC(=O)CNC(=S)N(CCCN1CCCCCC1)Cc1cccs1	3	1.3	-6	-11	2%	-23%
COC(=O)c1ccc(CSc2nc(C(F)F)cc(C)c2C#N)o1	-11	-3.2	3	3	-8%	-4%[15.4 µM]
CCOC(=O)COc1ccc(Br)cc1C1NC(=O)NC(C)=C1C(=O)NCc1ccccc1 (stereo not given)	4	2.8	2	2	-4%	-15%
CC(Sc1ccccc1)C(=O)NNC(=O)c1ccncc1 (stereo not given)	-4	0.0	13	-9	5%	-2%[15.4 µM]
Nc1ccc(-c2nnc(-c3ccc(N)cc3)o2)cc1	-7	2.6	1	-4	-10%	6%
CCOC(=O)CSc1nnc(-c2ccncc2)o1	2	0.5	14	-1	-11%	23%
O=C(NC12CC3CC(CC(C3)C1)C2)C12CC3CC(C1)CC(n1cnc(Cl)n1)(C3)C2	3	-1.3	13	-3	7%	-3%
S=c1[nH]c2ccc3ccccc3c2[nH]1	-5	-5.0	5	-4	12%	51%
CC(=O)N1CCSc2ccc(S(=O)(=O)N3CCC(C)CC3)cc21	.	3.6	0	-12	-2%	25%
CCCS(=O)(=O)c1nc(S(=O)(=O)c2ccc(C)cc2)c(NCc2ccc3c(c2)OCO3)s1	-3	-2.1	-5	-11	6%	-34%[inhibitor]
Cc1c(Cl)cccc1NC(=O)CNC(=O)c1ccccc1F	-11	-3.5	-4	-20	13%	-38%[inhibitor]
CCNc1nc(NCC)nc(-n2nc(C)cc2C)n1	11	0.4	-3	-18	1%	-26%
COCCCNC(=O)CCc1ccccc1	1	2.5	3	-2	5%	7%
CCCOc1ccc(/C=N/NC(=O)CN(c2ccc(OCC)cc2)S(C)(=O)=O)cc1	-4	2.3	-10	-2	-17%	0%[15.4 µM]
Cc1cccc(N(CC(=O)NC2CCCC2)C(=O)CCC(=O)Nc2cc(C)on2)c1	-1	-3.7	-20	-14	10%	-7%[15.4 µM]
Later entries:
SMILES	CtBP-E1A blk	D2 ag	Six1-Eya2 inh	D2 PAM	gsp antagonist	gsp agonist
CC1C(=O)N(Cc2cn(Cc3ccco3)nn2)CCS(=O)(=O)N1Cc1ccc(-c2ccncc2)cc1 (stereo not given)	4	-6.7	-9	4	.	0%
O=C(Cn1c(=O)n(-c2ccccc2)c(=O)c2oc3ccccc3c21)Nc1ccccc1	-4	-1.7	-2	24	7%	-9%
COc1cccc(CC(=O)OCC(=O)NCCc2ccc(F)cc2)c1	14	0.9	4	-4	9%	16%
Cc1ccc(-c2noc(COc3ccccc3C)n2)cc1	76	2.0	68	-5	-9%	-20%
COc1cccc(Nc2ccc(C(=O)O)cc2[N+](=O)[O-])c1	2	-8.4	1	-10	?	18%
CC1=N/C(=C\c2ccc([N+](=O)[O-])cc2)C(=O)N1c1cc(Cl)ccc1C	-8	3.6	-5	?	-2%	14%
CCCCC/C=C\C[C@H](O)/C=C/c1cccc(C[C@H](O)CCCCO)n1	6	-5.0	-4	8	3%	.
O=C(Nc1nc2cc3c(cc2s1)OCCO3)c1ccncc1	3	-2.8	-5	-7	-17%	2%[15.4 µM]
COc1ccc(C2=Nn3c(nnc3-c3ccccn3)SC2)cc1OC	-82*	-4.6	-77*	-4	18%	?
CCC1CCCCN1C(=O)Cn1c(=O)oc2ccccc21 (stereo not given)	2	-3.2	0	1	-4%	11%

In the list so far, five have a nitro group on carbon:
SMILES	CtBP-E1A blk	D2 ag	Six1-Eya2 inh	D2 PAM	gsp antagonist	gsp agonist
CC(=O)c1c(C)[nH]c(C(=O)OCC(=O)Nc2cc(Cl)ccc2[N+](=O)[O-])c1C	-12	3.5	-27	3	35µM*	?
CCCCOc1ccc(-c2csc(N)n2)cc1[N+](=O)[O-]	-27	-0.2	-24	-13	-6%	8%
COc1ccccc1CNC(=O)CN1C(=O)c2ccc([N+](=O)[O-])cc2C1=O	-2	?	9	12	5%	-12%
COc1cccc(Nc2ccc(C(=O)O)cc2[N+](=O)[O-])c1	2	-8.4	1	-10	?	18%
CC1=N/C(=C\c2ccc([N+](=O)[O-])cc2)C(=O)N1c1cc(Cl)ccc1C	-8	3.6	-5	?	-2%	14%

The list continues:
SMILES	CtBP-E1A blk	D2 ag	Six1-Eya2 inh	D2 PAM	gsp antagonist	gsp agonist
C=CCC1c2cccc(C(=O)O)c2C(=O)N1c1cccc(C)c1 (stereo not given)	8	0.8	6	4	-11%	-26%
CCCCNC(=O)Cn1nc(Cc2ccncc2)c2ccccc2c1=O	.	-5.4	7	-11	0%	1%
Nc1nc(-c2ccc(Cl)cc2)nnc1-c1ccc(Br)cc1	12	-1.2	0	-7	-20%	?
CCOc1ccc(S(=O)(=O)N2CCCCC2)cc1NC(=O)Cc1cc(OC)c(OC)c(OC)c1	5	-0.9	3	5	.	-52%[inhibitor]
COc1ccc(/C=N/NC(=O)c2ccc3nc[nH]c3c2)cc1OC	.	6.3	0	11	7%	0%
Cc1ccc(/C=N\Nc2nc3ccc(Cl)cc3[nH]2)o1	-1	5.5	-10	4	-18%	1%
Cn1c(=O)c2c(nc(Br)n2CCSc2ncccn2)n(C)c1=O	-1	-0.2	-3	-1	-5%	6%
CCN1CCN(S(=O)(=O)c2ccc(Cl)c(C(=O)N(CC)CC(=O)Nc3ccc(OC)cc3)c2)CC1	0	-1.0	1	-11	7%	4%
C=CCn1c(O)c(N=NC(=S)Nc2ccccc2F)c2ccccc21	-12	-7.8	?	-17	-26%	14%
CC1CCN(C(=O)C2CCC(C)(C(=O)O)C2(C)C)CC1 (stereo not given)	13	-0.1	14	0	7%	1%
Cc1cccc(/C=N/NC(=O)c2cc(-c3cccnc3)nc3c2c(C)nn3-c2ccccc2)c1	7	-1.6	10	-2	1%	3%
COCc1cc(=O)n2[nH]c(C(F)(F)F)nc2n1	11	-5.3	4	1	6%	-46%[inhibitor]
COc1cccc(NC(=O)C2=COCCO2)c1	4	5.2	8	-28	4%	-36%[inhibitor]

Structures listed so far printed as active in CtBP-E1A blk:
compound,CtBP-E1A blk,D2 ag,Six1-Eya2 inh,D2 PAM,gsp agonist
COc1ccc(C2=Nn3c(nnc3-c3ccccn3)SC2)cc1OC,-82*,-4.6,-77*,-4,?
